eIF4H FP inh = inhibitors of RNA binding by human eIF4H; AID 2012; actives 0.94% (n = 290,000); eIF4H fluorescence polarization binding assay; inhibition, % at 35 µM; Q15056;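 active means 50% or more with normal probe brightness, or confirmed in later tests; inconclusive means above 50% with abnormal brightness, or retests that disagree; inactive means below 50% or failed in later tests; about a fifth of its hits are not listed in these tables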;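 further: calls also rest on retests at 20 µM and on dose response follow-up; 0% = protein and probe with vehicle and 100% = probe without protein; strong numbers were not always called active; many hits fall short of the cut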
CSC inhib = blocks cancer stem cells; inhibition, % at 7.5 µM; actives 1.1% (n = 300,000); cancer stem cell-like cells viability, luminescence; AID 2717;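 active means mean at 75% or more and at least half the replicates too; inconclusive means mean and replicates disagree; tested in HMLE shEcad cells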;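 further: 0% = median of negative and 100% = median of positive control wells; the first replicate is given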
Yeast UUG start = yeast start codon fidelity modulation; activity score, % at 18.7 µM; S. cerevisiae UUG-firefly luciferase reporter, luminescence/redox ratio; AID 602363; actives 0.13% (n = 350,000);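 active means replicate mean at a twofold rise or more, about +100% in these data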;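 further: firefly luciferase made from a UUG start codon reports start codon fidelity; reporter light over untreated wells divided by growth signal over untreated wells; some hits fall short of that in this replicate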
MT1-MMP act inh = inhibitors of human MT1-MMP activation; P50281; HT1080 RFP-PRO-GFP cells, GFP/RFP ratio fluorescence, overnight; percent of plate control window, DMSO zero; GFP/RFP ratio change, % at 20 µM; actives 0.061% (n = 360,000); AID 651647;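 active means GFP/RFP ratio change of at least 30% with cell ATP level not reduced by more than half and red fluorescence within 50% of control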; further: strong numbers were not always called active
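Material: RFP-PRO-GFP reporter HT1080 cells. Dosing: single-point 20 µM compound, 1% DMSO. Controls: DMSO and RFP-L50D-GFP cell wells. Timing: cells overnight before dosing, compound overnight, 37 °C, 5% CO2. Measure: GFP/RFP fluorescence ratio.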
PABP polyA inh = PABP-poly(A) binding inhibition | P11940 | PABP-poly(A) RNA binding, fluorescence polarization | inhibition, % at 35 µM | actives 1% (n = 290,000);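 active means 50% or more with normal probe brightness, or confirmed in later tests; inconclusive means above 50% with abnormal brightness, or retests that disagree; inactive means below 50% or failed in later tests; about a fifth of its hits are not listed in these tables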;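 further: calls also rest on retests at 20 µM and on dose response follow-up; controls were probe without protein and protein plus probe with vehicle; some compounds called inactive have numbers as strong as hits; many hits fall short of the cut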
Target sequence (P11940 whole entry, looked up): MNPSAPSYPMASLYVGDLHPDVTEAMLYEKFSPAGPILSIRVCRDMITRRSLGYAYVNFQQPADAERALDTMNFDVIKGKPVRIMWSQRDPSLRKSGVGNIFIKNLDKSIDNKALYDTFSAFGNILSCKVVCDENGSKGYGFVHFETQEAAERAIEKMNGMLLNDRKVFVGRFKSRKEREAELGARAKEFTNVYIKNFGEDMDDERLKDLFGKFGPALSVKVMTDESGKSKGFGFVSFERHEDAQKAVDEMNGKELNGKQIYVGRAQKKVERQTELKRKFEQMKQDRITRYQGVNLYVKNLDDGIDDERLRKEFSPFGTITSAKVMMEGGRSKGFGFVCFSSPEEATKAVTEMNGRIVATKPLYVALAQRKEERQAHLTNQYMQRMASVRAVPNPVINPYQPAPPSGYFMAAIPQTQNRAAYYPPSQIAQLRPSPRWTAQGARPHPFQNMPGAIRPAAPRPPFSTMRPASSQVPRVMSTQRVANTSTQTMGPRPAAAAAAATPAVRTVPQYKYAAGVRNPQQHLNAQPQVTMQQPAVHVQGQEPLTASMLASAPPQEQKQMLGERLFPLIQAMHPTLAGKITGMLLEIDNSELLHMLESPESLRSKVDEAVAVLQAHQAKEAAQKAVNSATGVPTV
Rce1 inhib = inhibitors of yeast Ras-converting enzyme; Q03530; yeast membranes, quenched prenylated peptide cleavage fluorescence; calls only; actives 0.27% (n = 290,000); AID 2563;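 active means fall in fluorescence gain of 50% or more versus controls, with final raw signal at or below 3038400; inconclusive means same 50% fall but final raw signal above 3038400; inactive means fall in fluorescence gain under 50%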;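 further: plate controls were neutral control wells for no effect and wells lacking membranes for full effect; tested at 10 µM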
Target sequence (Q03530 whole entry, looked up): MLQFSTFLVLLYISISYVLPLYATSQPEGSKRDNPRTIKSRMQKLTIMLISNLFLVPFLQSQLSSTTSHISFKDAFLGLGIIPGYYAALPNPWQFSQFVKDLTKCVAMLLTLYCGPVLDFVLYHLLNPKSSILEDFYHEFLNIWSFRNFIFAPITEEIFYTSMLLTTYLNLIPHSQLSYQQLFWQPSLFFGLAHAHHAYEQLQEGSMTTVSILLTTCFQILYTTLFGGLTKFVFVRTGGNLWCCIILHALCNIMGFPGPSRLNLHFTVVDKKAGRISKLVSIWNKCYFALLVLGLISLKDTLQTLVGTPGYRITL
Env fusion inh = blocks HIV Env-driven cell-cell fusion | actives 1.1% (n = 360,000) | inhibition, % at 12.3 µM | AID 651610 | HeLa-JRFL Env/CEM21 cell fusion, luciferase;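 active means mean replicate inhibition score of at least 50 and every replicate individually at or above 50; inconclusive means only one of the two criteria met; inactive means mean below 50 and not all replicates reaching 50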;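 further: 0% = plate neutral controls and 100% = maraviroc near 300 nM; one replicate is shown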
eIF4H FP inh retest = also measured in eIF4H FP inh; calls as there; inhibition, %; compound at 20 µM; confirmation average;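 mean of two retest wells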
PABP polyA inh retest = also measured in PABP polyA inh; calls as there; inhibition, %; compound at 20 µM; confirmation repeats;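 mean of two retest wells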
MT1-MMP act inh RFP = second read-out of MT1-MMP act inh, no call of its own (marks repeat the call); RFP signal change, %; measured here: RFP expression control read;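 0 = vehicle wells; hits needed this value within 50% of zero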
Numbers without * were called inactive; i = inactive; ? = inconclusive; . = no result given; + = active, no number; & = joins results of further samples; [ ] = another dose, or the depositor's remark.

SMILES	eIF4H FP inh	CSC inhib	Yeast UUG start	MT1-MMP act inh	MT1-MMP act inh RFP	PABP polyA inh	Rce1 inhib	Env fusion inh	others
Cc1nc(=O)c(-c2ccccc2)c(C)n1CCO	-1	.	.	-2	-2	5	i	-1
COc1ccc(NC(=O)CCC(=O)OCc2ccc(C(=O)Oc3ccc(Cl)cc3)cc2)cc1	0	-3	.	4	0	6	i	-29
O=C(OCC(=O)c1cccs1)c1ccccc1	2	-8	-32	-2	-1	4	i	-119
CCOC(=O)C1Cn2c(nc3c(c2=O)C(C)(CC)Cc2ccccc2-3)S1 (stereo unspecified)	-12	-23	10	-1	-3	-4	i	-69
Cc1cccc(C(=O)OCC(=O)N2CCc3ccccc3C2)c1O	.	11	.	0	3	.	.	-11
CN(C)N1C(N)=C(C#N)C(c2ccsc2)C2=C1CCCC2=O (stereo unspecified)	42	-14	.	4	5	1	i	23
COc1ccc(N(CC(=O)N2CCN(c3cccc(Cl)c3)CC2)S(=O)(=O)c2c(C)noc2C)cc1	8	15	-4	0	-7	-5	i	18
O=C(CN1CCCCC1)N1CCCc2ccccc21	-6	-7	-13	3	2	1	i	.
Nc1[nH]c(=O)nc(Nc2ccccc2)c1N=O	.	-10	.	0	5	.	i	-7
COC(=O)c1ccccc1NC(=O)c1c(O)c2c([nH]c1=O)CCCC2	-4	6	-4	-8	3	0	i	-60
CN(c1ccccc1)S(=O)(=O)c1ccc(C(=O)NCCc2ccc(F)cc2)cc1	-3	-12	.	5	0	2	i	6
O=C(Nc1nnc(-c2ccncc2)o1)c1ccccc1F	-9	-1	-10	2	3	3	i	-4
O=C(CN1C(=O)CSc2ccc(S(=O)(=O)N3CCCCC3)cc21)NCc1ccccc1	3	-5	6	2	0	4	i	-12
O=C(Nc1ccccc1C(=O)O)c1cccc(NS(=O)(=O)c2ccc(Br)cc2)c1	16	.	-1	1	0	24	i	-2
CCOc1ccc(NC(=O)[C@H](Cc2ccccc2)NC(=O)C2CCNCC2)cc1	-5	3	.	0	2	-5	i	9
CCOC(=O)Cn1c(-c2cccnc2Cl)nc2cc(Cl)c(Cl)cc21	17	-2	.	8	2	14	i	39
Cc1cccc(C)c1NC(=S)Nc1ccc(F)cc1	-3	-10	.	-2	0	3	i	-1
Cn1c(=O)c(Sc2ccccc2)c(O)c2ccccc21	-12	4	.	0	8	11	.	6
O=C(CCN1C(=O)/C(=C\c2ccccc2)SC1=S)NNC(=O)c1ccncc1	-4	1	-10	4	3	-7	i	3
CC(=O)N1N=C(c2ccccc2)CC1c1ccccc1[N+](=O)[O-] (stereo unspecified)	-6	.	-6	4	-2	1	i	21
C[C@H]1CN([C@@H](C)CO)C(=O)CCCn2nncc2CO[C@H]1CN(C)C(=O)Cc1ccccc1	.	.	0&4&-16	4	1	.	.	-2[16.7 µM]
CN1C(=O)OC2(C)CCc3ccccc3C12C (stereo unspecified)	-2	-19	5	-2	5	5	i	-32
CCOC(=O)c1csc(Nc2nc3ccc(F)cc3s2)n1	9	34	-6	0	-10	4	i	15
COCCNC(=O)c1ccc(CS(=O)(=O)c2ccc(OC)cc2)o1	0	.	-15	3	3	0	i	-31

A draw from above in order of length of the SMILES, rising:
SMILES	eIF4H FP inh	CSC inhib	Yeast UUG start	MT1-MMP act inh	MT1-MMP act inh RFP	PABP polyA inh	Rce1 inhib	Env fusion inh	others
CN1C(=O)OC2(C)CCc3ccccc3C12C (stereo unspecified)	-2	-19	5	-2	5	5	i	-32
CCOC(=O)c1csc(Nc2nc3ccc(F)cc3s2)n1	9	34	-6	0	-10	4	i	15
O=C(CCN1C(=O)/C(=C\c2ccccc2)SC1=S)NNC(=O)c1ccncc1	-4	1	-10	4	3	-7	i	3

(cont.)
SMILES	eIF4H FP inh	CSC inhib	Yeast UUG start	MT1-MMP act inh	MT1-MMP act inh RFP	PABP polyA inh	Rce1 inhib	Env fusion inh	others
COc1ccc(S(=O)(=O)N2CCC(C(=O)NCCC(=O)NCc3ccccn3)CC2)cc1	.	.	-24	-3	2	.	.	-1
CC(C)(C)[C@@H]1COC(=O)[C@H](Cc2ccc(F)cc2)CC/C=C\C[C@@H](CC(=O)N(CCO)Cc2ccccc2)C(=O)N1	.	-17	2	0	0	.	.	-15
Cc1ccccc1OCC(=O)N(Cc1nc(-c2ccccc2)no1)C(C)C	-6	10	-6	-2	-2	-4	i	6
O=C1NCN(c2ccccc2)C12CCN(c1nnnn1-c1ccccc1)CC2	-17	5	-1	-6	-4	4	i	-4
O=C(CC1CCCC1)NNC(=O)c1ccc(Br)cc1	.	-13	-17	-4	-1	.	.	-18
O=C(NC1=NCCS1)c1ccc(N2CCCC2=O)cc1	1	-6	.	2	7	0	i	2
Brc1nnc2n1-c1ccccc1Sc1ccccc1-2	-3	70	-9	-1	0	2	.	-41
O=C(CN1CCC(NC(=O)c2ccco2)CC1)Nc1cccc2ccccc12	81	-8	-4	0	2	-1	i	.	eIF4H FP inh retest=34;PABP polyA inh retest=10
O=C(CSCc1ccco1)Nc1cc(C(F)(F)F)ccc1N1CCOCC1	3	-5	-14	-3	0	-5	i	.
CCCc1cc(=O)[nH]c(SCC(=O)Nc2cc(S(=O)(=O)N3CCCCC3)ccc2Cl)n1	.	.	-5	-12	0	.	.	-1
COc1ccc(-c2nc(N)ncc2-c2ccc(OC)c(OC)c2)c(O)c1	-6	7	-16	-4	1	1	i	25
Cc1cccc(-n2c(Cc3cc(=O)[nH]c(=O)[nH]3)nnc2SC(C)C)c1	8	-2	-9	-1	3	6	i	40
CCOc1ccc(C(Nc2cccnc2)c2cc(Cl)c3cccnc3c2O)cc1 (stereo unspecified)	?	3	.	-8	-4	?	i	1
COc1cccc(C(=O)/C=C2\Sc3ccccc3N2C)c1	1	-16	-12	3	0	-3	i	-279
CC(C)(C)C(=O)Nc1ccc(C(=O)N/N=C/c2ccccc2OC(=O)c2ccc(Cl)cc2Cl)cc1	4	30	-33	-3	-10	-7	i	.
Cc1cc2oc(=O)cc(COC(=O)Cn3cnnn3)c2cc1C(C)C	-13	2	-11	6	-2	1	i	-34
Cc1ccnc(SCC(=O)c2cccs2)n1	-2	-1	.	-1	3	23	i	-20
CC(C)CN1CCC(=O)N([C@H](CSc2ccc(Br)cc2)c2ccccc2)CC1	9	16	-15	-3	-3	-5	i	-4
Cc1cccc(COc2ccc(/C=N/NC(=O)c3nnn(-c4nonc4N)c3C)cc2)c1	-7	-12	-1	1	1	-6	i	1
Cc1ccc(CNC(=O)C2CCCN(S(=O)(=O)c3ccc(-n4cnnn4)cc3)C2)cc1 (stereo unspecified)	-9	.	-9	3	-2	4	i	1
COc1cc(C(=O)N2CCCCC2c2cc(C(=O)NC(C)C)no2)cc(OC)c1C (stereo unspecified)	.	.	2	0	1	.	.	35
CCS(=O)(=O)N1CCN(C2CCC(c3ccccc3)CC2)CC1 (stereo unspecified)	-2	26	-2	5	-1	24	+	.
Cc1ccc(C(=O)CSc2nc3ccc(C(=O)NCCN4CCCCC4)cc3c(=O)[nH]2)cc1	-1	7	-18	-1	6	10	i	9
COc1cc(C)c(-c2cc(C(=O)O)c(C)o2)cc1C(C)C	18	-3	-14	-7	-4	27	i	.
CCCCCCNC(=O)c1cc(-c2ccco2)nc2ccccc12	45	-8	-14	-9	0	-1	i	-3
CCOc1ccc(CN2CCNC(=O)C2CC(=O)NCc2ccccn2)cc1 (stereo unspecified)	28	-5	.	-3	1	6	i	3
Cc1ccc(Sc2ncccc2C(=O)NCc2cc([N+](=O)[O-])ccc2O)c(C)c1	-15	11	-19	2	-3	-2	i	-1
Cc1cccc(-n2c(SCc3cc(=O)n4ccsc4n3)nc3ccccc32)c1	4	.	-13	2	5	-3	i	-33
CCN(CC)CCNc1ccc(CO)c2oc3cc(Cl)ccc3c(=O)c12	.	.	-7	1	-6	.	.	-6
Cc1c(C(=O)NCC2COc3ccccc3O2)oc2ccc(S(=O)(=O)N3CCOCC3)cc12 (stereo unspecified)	1	30	0	-5	-12	0	i	2
COc1ccc(C(=O)Nc2ccc3c(c2)OCCO3)cc1S(=O)(=O)N1CCOCC1	.	-10	-9	0	1	.	.	5
O=C(Oc1cccc(C(=S)N2CCOCC2)c1)c1ccc([N+](=O)[O-])cc1	-2	1	-18	4	7	6	i	5
CCC1(C)Cc2c(sc3nc(SC)[nH]c(=O)c23)CO1 (stereo unspecified)	4	-5	-13	0	-3	1	i	-18
COc1ccc(C(=O)Nc2cccc(-c3nnc(-c4ccco4)o3)c2)cc1	-4	-2	-17	4	-5	-12	i	-45
Cc1ccsc1C(=O)OCC(=O)NCCCc1ccccc1	10	-17	.	-3	3	22	i	11
O=C(Nc1ccon1)c1ccc(Cl)s1	8	-5	.	-2	-3	30	i	.
COCCNc1ncnc2c1[nH]c1ccccc12	-4	7	-3	6	-12	2	.	-2
Cc1nc2cc(-c3cccc(F)c3)nn2c(C)c1CCC(=O)NC(C)CCc1ccco1 (stereo unspecified)	2	-8	-38	-6	-10	11	i	.
CN1C(=O)C(C)(C)c2cc(S(=O)(=O)N3CCN(c4cccc(Cl)c4)CC3)ccc21	26	-3	-4	2	-6	8	i	-6
Nc1ccc2c(c1)-c1ccccc1S(=O)(=O)N2	37	11	-21	4	6	50	i	-87
CCCc1cc(C(=O)OC)c(NC(=O)OCC)s1	2	-4	-5	1	-3	3	i	.
CC1CCCCN1C(=O)c1ccc(C(=O)c2ccccc2)cc1 (stereo unspecified)	.	7	5	-1	-3	.	.	-8
Cc1ccccc1CNC(=O)CCC(=O)N1Cc2ccccc2Oc2ncccc21	-3	-6	-8	1	-1	14	i	0
COc1ccc2[nH]c(N=Nc3ccccc3C)c(O)c2c1	5	-19	.	-1	-4	0	i	-12
COc1ccc(S(=O)(=O)Nc2ccccc2C(=O)NCc2cccnc2)cc1OC	3	6	-13	2	1	-1	i	-15
O=C(NCCc1c[nH]c2ccccc12)C(=O)NCC1OCCCN1S(=O)(=O)c1ccc(F)cc1 (stereo unspecified)	-5	-3	.	2	-1	36	i	-7
COc1ccc(F)cc1S(=O)(=O)N1CCCC(C)C1 (stereo unspecified)	0	-22	-23	-1	-4	6	i	-26
O=C(NCCCn1ccnc1)c1ccc(NS(=O)(=O)c2cccc([N+](=O)[O-])c2)cc1	.	-15	.	1	4	.	i	0
CC(C(=O)Nc1ccc2c(c1)OCCO2)N1Cc2ccccc2C1=O (stereo unspecified)	.	-5	.	1	5	.	i	3
COc1ccc(C(=O)NCCc2nnc3ccc(SCC(=O)N4CCCC4)nn23)cc1	3	4	-16	-3	3	-2	i	-3
COc1cc(NC(=O)c2noc3c2CCC3)c(OC)cc1Cl	68	-5	.	-2	0	34	i	0	eIF4H FP inh retest=-3;PABP polyA inh retest=5
O=c1[nH]c(CSc2nnc(COc3ccccc3)n2-c2ccccc2)nc2ccccc12	-14	-13	-26	-8	-8	-13	i	.
Cc1nn(C(C)C(=O)O)c(=O)c2ccccc12 (stereo unspecified)	0	-13	-13	-8	4	0	i	7
O=C(CN1CCCC1)OCCCC1CCCCC1	-7	3	.	0	3	-5	i	14
Cc1nnc2c(N3CCN(C(=O)c4ccco4)CC3)nc3ccccc3n12	.	-6	-2	5	6	.	i	1
Cc1ccc2c(c1)COc1c3ccc(C(=O)N4CCCCC4)cc3nn1-2	-10	-16	-15	3	2	4	i	-199

Screens from PubChem.

Not all compounds are listed (hit frequency here may not be typical).
